Ecoli rRNA inh: selective bacterial rRNA inhibition in E. coli. E. coli WT GFP vs humanized-ribosome RFP mutants, fluorescence, 24 h; stronger effect = lower value; DMSO median 0, no signal -100. GFP signal change (wild-type ribosome), % (concentration not given with the values). actives 1.6% (n = 350,000);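 active means significant combined selectivity score with lowered wild-type GFP, culture density cut under 30%, mutant RFP and density less affected; inactive means any of these conditions unmet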; further: one replicate is shown; some compounds called inactive have numbers as strong as hits
Ecoli rRNA inh OD600: recorded beside Ecoli rRNA inh, whose call it bears; OD600 change, %; measured here: OD600 growth;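 optical density of the mix in the first replicate; 0 = DMSO median and -100 = no signal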
Ecoli rRNA inh RFP: also measured in Ecoli rRNA inh; calls as there; RFP signal change, %; measured here: RFP humanized mutant strains;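 first replicate; 0 = DMSO median and -100 = no signal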
* hit, by the source's call; & = joins results of further samples.

SMILES | Ecoli rRNA inh | Ecoli rRNA inh OD600 | Ecoli rRNA inh RFP
C[C@@H]1CCCCO[C@@H](CN(C)C(=O)C2CCCCC2)[C@H](C)CN([C@@H](C)CO)C(=O)c2cc(NC(=O)CCCN(C)C)ccc2O1 | 2 | 3 | -1.5
CNC[C@H]1OCCCC[C@@H](C)Oc2ccc(NC(=O)CCC(F)(F)F)cc2C(=O)N([C@@H](C)CO)C[C@@H]1C | 9 | 8 | -0.3
COc1ccccc1C(=O)Nc1ccc2c(c1)OC[C@H](C)N(CC1CC1)C[C@H](C)[C@H](OC)CN(C)C2=O | 2 | 1 | 0.2
C[C@@H]1COCn2nncc2CC[C@H](C)C(=O)N1 | 4 | 8 | 1.3
C[C@@H]1CCCCO[C@H](CN(C)C)[C@H](C)CN([C@@H](C)CO)C(=O)c2cc(NS(=O)(=O)c3ccc(Cl)cc3)ccc2O1 | -2 | 2 | -0.9
COc1ccc2c3c(n(C)c2c1)[C@H](CO)N(C(C)=O)CC31CN(Cc2cccnc2)C1 | 0 | 2 | 0.2
Cc1ccc(S(=O)(=O)Nc2ccc3c(c2)C(=O)N([C@@H](C)CO)C[C@H](C)[C@H](CN(C)C(=O)Nc2ccc4c(c2)OCO4)O3)cc1 | 0 | -8 | 3.4
C[C@@H]1CN([C@@H](C)CO)C(=O)CCCn2nncc2CO[C@@H]1CN(C)Cc1cccc(O)c1 | 1 | -1 | 0.0
CC(=O)N1C[C@@H]2C(c3ccccc3)[C@@H](C1)N2C(=O)NC(C)C (some centres undefined) | 2 | 4 | -1.2
CO[C@H]1CN(C)C(=O)c2ccc(NC(=O)c3ccno3)cc2OC[C@@H](C)NC[C@@H]1C | 4 | 7 | 1.2
C[C@@H]1COCn2nncc2CC[C@H](Cc2ccc(-c3ccccc3)cc2)C(=O)N1 | -5 | -7 | -1.2
CO[C@H]1CN(C)C(=O)c2ccc(NC(=O)C3CCOCC3)cc2OC[C@@H](C)N(C)C[C@H]1C | 0 | -3 | -0.1
C[C@H](CO)N1C[C@H](C)[C@H](CN(C)Cc2ccc(C(=O)Nc3ccccc3N)cc2)Oc2ccc(NC(=O)NC3CCCCC3)cc2C1=O | -5 | -23 | 0.4
C[C@H](CO)N1C[C@H](C)[C@H](CN(C)C(=O)Nc2ccc3c(c2)OCO3)OCc2ccccc2-c2ccccc2C1=O | -3 | 2 | -5.3
O=C(Nc1cccc(F)c1)N1CCCCN2[C@H](C1)[C@H](c1ccc(C#Cc3ccccc3)cc1)[C@@H]2CO | 5 | 4 | 1.9
O=C(Nc1ccc(F)cc1)N1CC(=O)N2[C@@H](CO)[C@@H](c3ccc(C#Cc4ccccc4)cc3)[C@@H]2C1 | -23 | -36 | 24
COc1ccc2c3c(n(C)c2c1)[C@H](CO)N(CC1CC1)CC31CN(C(=O)CN2CCOCC2)C1 | 3 | 9 | -1.2
O=C(CN1CCOCC1)N[C@@H]1CC[C@H](CCNS(=O)(=O)c2ccccc2F)O[C@@H]1CO | 2 | 0 | -1.1
C[C@H]1CN([C@@H](C)CO)C(=O)c2cc(NS(=O)(=O)c3ccccc3)ccc2O[C@H]1CN(C)C(=O)Nc1ccc(C(F)(F)F)cc1 | -7 | -9 | -0.1
COc1ccccc1NC(=O)N(C)C[C@H]1OCc2cn(nn2)CCCC(=O)N([C@@H](C)CO)C[C@H]1C | 1 | 6 | -4.4
CCC(=O)N1C[C@@H](C)[C@H](OC)CN(C)C(=O)c2cc(NC(=O)c3ccno3)ccc2OC[C@@H]1C | 4 | -1 | 0.0
Cc1noc(C)c1NC(=O)N1C[C@H](O)COC[C@@H]2O[C@H](CC(=O)N[C@@H]3CCN(Cc4ccccc4)C3)CC[C@H]21 | 2 | -7 | -2.0
Cc1ccc(OC(=O)N(C)C[C@H]2OCc3cn(nn3)CCCC(=O)N([C@@H](C)CO)C[C@H]2C)cc1 | 3 | 6 | -2.4
C[C@@H]1CCCCO[C@@H](CN(C)Cc2ccncc2)[C@@H](C)CN([C@@H](C)CO)C(=O)c2cc(NS(C)(=O)=O)ccc2O1 | 3 | -2 | -0.3
C[C@@H]1CN([C@H](C)CO)C(=O)CCCn2cc(nn2)CO[C@@H]1CN(C)C(=O)c1ccc(N2CCN(C)CC2)cc1 | -3 | 7 | 0.8

Profiles as entered above:
C[C@@H]1COCn2nncc2CC[C@H](Cc2ccc(-c3ccccc3)cc2)C(=O)N1 reads Ecoli rRNA inh: -5; Ecoli rRNA inh OD600: -7; Ecoli rRNA inh RFP: -1.2
C[C@H](CO)N1C[C@H](C)[C@H](CN(C)C(=O)Nc2ccc3c(c2)OCO3)OCc2ccccc2-c2ccccc2C1=O reads Ecoli rRNA inh: -3; Ecoli rRNA inh OD600: 2; Ecoli rRNA inh RFP: -5.3

New compounds follow.
SMILES | Ecoli rRNA inh | Ecoli rRNA inh OD600 | Ecoli rRNA inh RFP
C[C@H](CO)N1C[C@H](C)[C@@H](CN(C)S(=O)(=O)c2ccccc2)Oc2ccc(NS(C)(=O)=O)cc2C1=O | 3 | 9 | -3.3
C/C=C/c1ccc([C@@H]2[C@@H](CO)N(C(=O)CC)[C@H]2CN(C)C(=O)C2CC2)cc1 | -1 | 5 | -0.7
C[C@@H]1CN([C@H](C)CO)C(=O)c2cc(C#Cc3ccccn3)cnc2O[C@@H]1CN(C)CC1CCCC1 | 0 | 8 | -1.4
CCCC(=O)Nc1ccc2c(c1)C(=O)N(C)C[C@@H](OC)[C@H](C)CN(Cc1ccc(F)cc1)[C@H](C)CO2 | 0 | 11 | -4.3
Cc1ccc(S(=O)(=O)Nc2ccc3c(c2)C(=O)N([C@H](C)CO)C[C@@H](C)[C@H](CN(C)Cc2ccc(Oc4ccccc4)cc2)O3)cc1 | -3 | -7 | 3.7
CCN1[C@@H]2Cn3c(ccc(C4=CCCCC4)c3=O)[C@H]1[C@@H](C(=O)NCC(F)(F)F)[C@@H]2CO | 5 | 6 | 1.9
C[C@@H]1CN(C)C(=O)Cc2cc(N)ccc2O[C@@H]1CN(C)S(C)(=O)=O | 0 | 1 | 0.8
CN1CCN(C(=O)C[C@@H]2C=C[C@H](NC(=O)Nc3ccccc3F)[C@H](CO)O2)CC1 | 2 | -1 | 0.4
CN(C)CC(=O)N1[C@@H](CO)[C@H](c2ccccc2)C12CN(C(=O)C1CCCC1)C2 | 2 | 6 | -3.5
CC(C)NC(=O)N(C)C[C@H]1Oc2ccc(N)cc2CC(=O)N(C)C[C@@H]1C | 3 | 10 | -1.2
CC(C)C#Cc1ccc2c(c1)O[C@@H](CN(C)C(=O)C1CCCCC1)[C@@H](C)CN([C@@H](C)CO)S2(=O)=O | 3 | 6 | 2.5
CC(C)C#Cc1ccc2c(c1)O[C@@H](CN(C)C)[C@H](C)CN([C@H](C)CO)S2(=O)=O | -4 | 2 | 4.0
CCCNC(=O)Nc1ccc2c(c1)C(=O)N(C)C[C@@H](OC)[C@@H](C)CN(Cc1ccncc1)[C@H](C)CO2 | -2 | -5 | -2.3
Cc1ccc(S(=O)(=O)N(C)C[C@@H]2Oc3ccc(NS(=O)(=O)c4cn(C)cn4)cc3CC(=O)N([C@@H](C)CO)C[C@@H]2C)cc1 | 3 | 5 | 0.3
COCC(=O)N(C[C@@H]1N[C@H](CO)[C@H]1c1ccc(C2=CCCC2)cc1)C(C)C | 3 | 0 | 3.4
COc1ccc2c3c([nH]c2c1)[C@@H](CO)N(C(=O)Nc1ccc(F)cc1)CC31CN(CC2CC2)C1 | 1 | -18 | 22
Cc1noc(C)c1NC(=O)N1C[C@H](O)COC[C@H]2O[C@@H](CC(=O)N[C@H]3CCN(Cc4ccccc4)C3)CC[C@@H]21 | 0 | 9 | 0.6
CO[C@H]1CN(C)C(=O)c2cc(NC(=O)Nc3ccc(Cl)c(Cl)c3)ccc2OC[C@@H](C)NC[C@H]1C | -5&-60 | -10&-81 | 11&-14
Cc1noc(C)c1S(=O)(=O)N(C)C[C@H]1Oc2ccc(NC(=O)Nc3ccccc3)cc2CC(=O)N([C@@H](C)CO)C[C@@H]1C | 2 | -3 | -1.7
Cc1noc(C)c1S(=O)(=O)N(C)C[C@H]1Oc2ccc(NC(=O)Nc3ccc(C(F)(F)F)cc3)cc2C(=O)N([C@H](C)CO)C[C@@H]1C | -5 | -12 | 1.4
COCCNC(=O)C[C@H]1C[C@H]2c3cc(NC(=O)C4CCOCC4)ccc3O[C@H]2[C@@H](CO)O1 | 3 | 0 | 0.4
CCN(C[C@H]1N[C@H](CO)[C@H]1c1ccc(-c2cccc(C#N)c2)cc1)C(C)=O | 2 | 10 | 1.9
O=C(Nc1ccccc1)N1CC(=O)N2[C@H](CO)[C@H](c3ccc(-c4ccc(F)cc4)cc3)[C@H]2C1 | -1 | -49 | 30
CC(C)CC#Cc1ccc2c(c1)O[C@@H](CN(C)C(=O)C1CC1)[C@@H](C)CN([C@H](C)CO)S2(=O)=O | 0 | -1 | 1.7
C[C@H]1CN([C@@H](C)CO)S(=O)(=O)c2ccc(-c3ccncc3)cc2O[C@H]1CN(C)C(=O)C1CCCCC1 | -6 | -12 | 0.2
The results go on:
SMILES | Ecoli rRNA inh | Ecoli rRNA inh OD600 | Ecoli rRNA inh RFP
CCCC(=O)Nc1ccc2c(c1)C(=O)N(C)C[C@H](OC)[C@@H](C)CN(CC1CCOCC1)[C@H](C)CO2 | 0 | -7 | -0.8
CO[C@H]1CN(C)C(=O)c2ccc(NC(=O)C3CCOCC3)cc2OC[C@H](C)N(C)C[C@H]1C | -1 | 5 | -0.1
C[C@H]1CN([C@@H](C)CO)C(=O)c2cc(-c3cccnc3)cnc2O[C@@H]1CN(C)C(=O)C1CCCCC1 | 0 | 9 | 2.8
C[C@H](CO)N1C[C@H](C)[C@H](CN(C)C(=O)Nc2ccccc2)OCCCC[C@H](C)Oc2ccc(NC(=O)Nc3ccc(C(F)(F)F)cc3)cc2C1=O | 2 | 10 | -2.9
C[C@H]1COCc2cn(nn2)CC[C@H](Cc2ccccc2)C(=O)N1 | -3 | -9 | -0.1
C[C@@H]1CN([C@@H](C)CO)C(=O)c2cc(-c3cccc(F)c3)cnc2O[C@@H]1CN(C)C(=O)C1CC1 | 6 | 18 | -0.7
CC(C)[C@@H]1C/C=C\CCNC(=O)[C@@H](C)CC(=O)N1 | 6 | 8 | -2.3
CCCC(=O)N1CC2(CN(C(C)=O)C2)c2c(n(C)c3cc(OC)ccc23)[C@H]1CO | 1 | 7 | -2.4
O=C(Nc1ccccc1)N1CC(=O)N2[C@H](CO)[C@H](c3ccc(-c4ccc(F)cc4)cc3)[C@@H]2C1 | -12 | -53 | 18
COc1ccc(C[C@@H]2CCn3nncc3COCCCNC2=O)cc1 | 5 | 3 | -0.4
Cc1ccc(S(=O)(=O)N(C)C[C@@H]2Oc3ccc(NS(=O)(=O)c4cn(C)cn4)cc3C(=O)N([C@@H](C)CO)C[C@H]2C)cc1 | 0 | -1 | 0.3
C[C@H]1CN([C@@H](C)CO)C(=O)Cc2cc(NC(=O)Nc3ccc(C(F)(F)F)cc3)ccc2O[C@@H]1CN(C)S(=O)(=O)c1ccc(F)cc1 | 0 | 0 | -2.4
COc1ccc(C[C@@H]2CCn3cc(nn3)COC[C@H](c3ccccc3)NC2=O)cc1 | -1 | -2 | -0.9
C[C@H]1CN([C@@H](C)CO)S(=O)(=O)c2ccc(-c3ccccc3)cc2O[C@H]1CN(C)C(=O)c1ccccc1F | -7 | -19 | 13
CO[C@H]1CN(C)C(=O)c2cc(NC(=O)c3ccccc3)ccc2OC[C@@H](C)N(CC2CC2)C[C@@H]1C | 0 | -6 | -3.5
CC(=O)Nc1ccc2c(c1)C(=O)N(C)C[C@@H](C)[C@H](CN(C)C)O2 | 3 | 3 | -0.8

5 compounds already listed, sorted by molar mass, ascending.
SMILES | Ecoli rRNA inh | Ecoli rRNA inh OD600 | Ecoli rRNA inh RFP
CC(C)[C@@H]1C/C=C\CCNC(=O)[C@@H](C)CC(=O)N1 | 6 | 8 | -2.3
O=C(Nc1ccccc1)N1CC(=O)N2[C@H](CO)[C@H](c3ccc(-c4ccc(F)cc4)cc3)[C@@H]2C1 | -12 | -53 | 18
CO[C@H]1CN(C)C(=O)c2ccc(NC(=O)C3CCOCC3)cc2OC[C@H](C)N(C)C[C@H]1C | -1 | 5 | -0.1
C[C@@H]1CN([C@@H](C)CO)C(=O)c2cc(-c3cccc(F)c3)cnc2O[C@@H]1CN(C)C(=O)C1CC1 | 6 | 18 | -0.7
Cc1ccc(S(=O)(=O)N(C)C[C@@H]2Oc3ccc(NS(=O)(=O)c4cn(C)cn4)cc3C(=O)N([C@@H](C)CO)C[C@H]2C)cc1 | 0 | -1 | 0.3

Some of the compounds tested; the hit share may differ from the screen's.
